# GLA inh pH 4.5 = alpha-galactosidase A (human) inhibition, pH 4.5; 230,000 tested, under 10 active; purified enzyme, 4-MU-alpha-Gal fluorescence, pH 4.5; P06280; activity change, negative = inhibition, % at 105 µM; inconclusive = small, poorly fitted or top-dose-only inhibition, or a rising curve; inactive = flat fitted curve, though single readings scatter; no compound was filed as active;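 further: 0% = full activity with enzyme and -100% = basal without enzyme; dose as in the result columns while the protocol names 77 µM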
# miR-21 FLuc = miR-21 reporter, rising signal; HeLa miR-21 FLuc reporter, luciferase, 48 h; AID 2288; Potency, µM (doses to about 38.3 µM), without a hit: at the highest dose reporter change, positive = more light; 340,000 tested, under 10 active; active = well fitted rising curve with a large enough effect; inconclusive = small, poorly fitted or top-dose-only effect; inactive = no such curve, though single readings can be large or run the other way;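 further: % of control where 0% means no effect; miR-21 action dims this reporter so a rising signal means less miR-21 action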
#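 HeLa cells stably expressing CMV-driven firefly luciferase with a downstream miR-21 binding sequence, endogenously expressing miR-21, were treated with titrations (up to about 40uM final) for 48 hours at 37 degree Celsius. Luciferase luminescence was read after lysis.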
# Rango complex inh = prevents formation of the Rango-importin beta complex | Q14974 | Rango CFP/YFP FRET sensor + importin beta, 45 min | Potency, µM (top dose mostly 92.2 µM), inactives show at the top dose inhibition of complex formation | 340,000 compounds, 0.031% hits; active = rising FRET ratio curve, often small or poorly fitted; inconclusive = mostly compound fluorescence or quenching in the first reads; inactive = flat curves in all reads;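 further: potency means the concentration at half of the fitted maximal effect; 0% = DMSO wells and 100% = buffer wells lacking importin beta; nearly all actives have a fitted effect of over 15% in size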
# Target sequence (Q14974 whole entry, looked up): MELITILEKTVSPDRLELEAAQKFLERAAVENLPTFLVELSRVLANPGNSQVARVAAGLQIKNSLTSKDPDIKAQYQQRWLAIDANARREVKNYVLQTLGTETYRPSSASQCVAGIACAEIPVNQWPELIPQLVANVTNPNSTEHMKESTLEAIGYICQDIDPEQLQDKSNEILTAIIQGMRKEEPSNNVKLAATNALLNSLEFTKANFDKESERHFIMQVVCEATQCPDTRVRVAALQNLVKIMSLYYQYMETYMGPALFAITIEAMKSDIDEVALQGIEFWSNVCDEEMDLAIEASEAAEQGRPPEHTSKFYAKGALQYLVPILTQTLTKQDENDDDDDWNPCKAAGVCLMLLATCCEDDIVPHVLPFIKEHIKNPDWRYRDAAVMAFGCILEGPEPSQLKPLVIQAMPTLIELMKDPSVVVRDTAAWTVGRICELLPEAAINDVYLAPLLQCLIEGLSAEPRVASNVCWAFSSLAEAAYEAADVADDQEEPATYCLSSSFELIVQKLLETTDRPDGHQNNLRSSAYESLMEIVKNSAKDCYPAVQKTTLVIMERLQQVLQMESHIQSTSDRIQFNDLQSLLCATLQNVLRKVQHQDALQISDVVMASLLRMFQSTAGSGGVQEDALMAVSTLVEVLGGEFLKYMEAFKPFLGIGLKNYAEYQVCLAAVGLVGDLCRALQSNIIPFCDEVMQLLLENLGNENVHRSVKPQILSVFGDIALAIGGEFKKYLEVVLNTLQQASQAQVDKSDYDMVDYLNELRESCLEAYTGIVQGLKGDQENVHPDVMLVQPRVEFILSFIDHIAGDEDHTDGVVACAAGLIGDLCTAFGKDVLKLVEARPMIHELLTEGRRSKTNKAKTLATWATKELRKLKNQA
#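 Inhibition scored from the CFP 486 nm/YFP 530 nm FRET ratio 45 min after adding 0.125 microM importin beta to 50 nM Rango biosensor preincubated 5 min with compound (room temperature, PBS with DTT, Tween-20, BSA). No-importin wells as positive control.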
# Rango release inh = inhibition of RanGTP-driven Rango-importin beta dissociation; Potency, µM (highest dose often 46.1 µM), without a hit: at the top dose activity change, negative = inhibition; O95149+P62826; 340,000 compounds, 0.071% hits; Biochemical FRET Rango-importin beta, RanGTP-induced dissociation; active means falling FRET ratio curve, often poorly fitted, with flat reads before Ran was added; inconclusive means other falling curves, or compound fluorescence or quenching; inactive means flat or rising ratio curve;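 further: potency means the concentration at half of the fitted maximal effect; % of control where 0% means no effect; nearly all actives have a fitted effect of over 45% in size; -100% = wells without RanGTP and RCC1; the record marks most hits as doubtful in a second field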
#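 Rango (0.1 uM)–importin beta (0.25 uM) complex; RanGTP-RCC1 trigger; 45 min RT; CFP/YFP FRET read.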
# * = called active by the depositor; ? = inconclusive; nt = not tested or not shown; & = joins results of further samples; [ ] = another dose, or the depositor's remark. The list is partial, so the mix of outcomes need not match the whole.
# The opening 4 records as a preview:
GLA inh pH 4.5 | miR-21 FLuc | Rango complex inh | Rango release inh | smiles
-4 | 9% | -6.4% | -5% | Cc1ccc(-c2noc(CN(C(=O)C(c3ccccc3)c3ccccc3)C(C)C)n2)cc1
1 | 3% | -3.4% | 11% | COc1ccc(Cc2nnc(N/N=C/c3ccc(N(C)C)cc3)[nH]c2=O)cc1OC
0 | -14% | 0.9% | 4% | COc1ccc(/C=N/NC(=O)Cn2c(Cc3ccc(OC)c(OC)c3)nc3ccccc32)cc1OC
6 | 7% | -4.4% | -19% | O=C(COC(=O)c1ccc2c(=O)n3c(nc2c1)CCC3)Nc1ccc(OC(F)F)cc1

# The whole of this part, from the start:
GLA inh pH 4.5 | miR-21 FLuc | Rango complex inh | Rango release inh | smiles
-4 | 9% | -6.4% | -5% | Cc1ccc(-c2noc(CN(C(=O)C(c3ccccc3)c3ccccc3)C(C)C)n2)cc1
1 | 3% | -3.4% | 11% | COc1ccc(Cc2nnc(N/N=C/c3ccc(N(C)C)cc3)[nH]c2=O)cc1OC
0 | -14% | 0.9% | 4% | COc1ccc(/C=N/NC(=O)Cn2c(Cc3ccc(OC)c(OC)c3)nc3ccccc32)cc1OC
6 | 7% | -4.4% | -19% | O=C(COC(=O)c1ccc2c(=O)n3c(nc2c1)CCC3)Nc1ccc(OC(F)F)cc1
-14 | -8% | -2.4% | 5% | CCCCCC(=O)N1CCCC(c2nc(-c3ccc(OC)cc3)no2)C1 (configuration not stated)
-3 | 1% | -0.2% | -9% | CC(C)C(C(=O)Nc1ccc(S(=O)(=O)N2CCOCC2)cc1)N1C(=O)c2ccccc2C1=O (configuration not stated)
-10 | -5% | -1.5% | -1% | CCc1ccccc1NC(=S)N(CCN(C)C)Cc1cccs1
3 | -1% | ? | -9% | Cc1ccc2nc3c(c(C(=O)OCC(=O)N(C)C4CCS(=O)(=O)C4)c2c1)CCCC3 (configuration not stated)
5 | 0% | -3.2% | 6% | O=C(Cn1nnc(-c2ccccc2F)n1)NCCc1ccccc1
2 | -9% | 4.3% | 21% | Cc1onc(-c2c(Cl)cccc2Cl)c1C(=O)NCC1CCCO1 (configuration not stated)
nt | nt | 0.6% | 3% | COc1ccccc1C(=O)NCCC(=O)NCC(c1ccco1)N1CCCCC1 (configuration not stated)
8 | -10% | 0.7% | 1% | CC1=NN(C(C#N)c2c(C)nn(Cc3ccccc3)c2C)C(C)(C)C1 (configuration not stated)
3 | 2% | -0.1% | -11% | CCn1c(SCC(=O)Nc2ccc(C)cc2)nc2nc3c(cc2c1=O)COC(C)(C)C3
-10 | -43% | 4.0% | -7% | Cc1cc(/C=C(\C#N)C(=O)NCc2ccco2)c(C)n1C1CCCC1
7 | 18% | 3.4% | -4% | NCC/C=C1/c2ccccc2CSc2ccccc21
nt | -70% | 0.3% | 4% | O=C(NC1=NCCS1)c1ccc(C(F)(F)F)cc1
-3[21.1 µM] | -4% | -1.1% | 7% | CCOCCCNCc1ccc(OCCC(C)C)c(OC)c1
nt | -1%&10% | -2.4% | 0% | CC(=O)c1ccc(N2CCN(S(=O)(=O)c3ccc(-c4cnc(C5CC5)o4)cc3)CC2)cc1
-11 | -17% | -0.8% | 7% | C=C(C)COc1ccc(-c2[nH]ncc2Oc2ccc(OC)cc2)c(O)c1
nt | nt | 0.8% | 14% | Cc1ccccc1Oc1ccc2c(c1)[C@@H]1C[C@H](N(C)C(=O)c3ccc(C#N)cc3)[C@H]([C@H](C)O)C(=O)N1CC2
nt | -1% | 0.5% | 1% | O=C(c1ccc(Cl)cc1)N1CCN(C(=O)C2CCCCC2)CC1
nt | 19% | -0.4% | 1% | Cc1ccc(NC(=S)NCCc2ccc(Cl)cc2)c(C)c1
nt | 0% | -3.6% | -3% | Cc1ccc(N2CC(C(=O)Nc3ccc(S(=O)(=O)Nc4nccs4)cc3)CC2=O)cc1C (configuration not stated)
nt | 17% | -5.0% | -16% | COc1ccc(C(=O)C2CCN(C(=O)c3ccc(F)cc3)CC2)cc1
-1 | 1% | 0.2% | 4% | CS(=O)(=O)N(CCc1ccccc1)CC(=O)NCc1ccccc1Cl
nt | nt | -0.3% | 26% | CC(=O)Nc1cccc(NC(=O)CSc2nnc3ccc(-c4cccnc4)nn23)c1
nt | 0% | 1.1% | 14% | Cc1ccc(-n2ncc3c2CC(C)(C)CC3NC(=O)c2c(C)noc2C)cc1 (configuration not stated)
nt | nt | ? | -5% | O=C(NC1CC1)C1=C[C@H](c2coc3ccccc3c2=O)C[C@H](OCc2ccc(CO)cc2)O1
nt | 11% | -1.7% | 16% | COc1ccc(NC(=O)CN2C(=O)NC3(CCCC3)C2=O)cc1Cl
1 | 2% | ? | 19% | CC(CCCC(C)(C)O)CC1C2=C(CCCC2=O)OC2=C1C(=O)CCC2 (configuration not stated)
0 | -2% | 0.4% | -6% | CCOC(=O)CSc1nnc(CNC(=O)c2ccccc2OC)n1-c1ccc(OC)cc1
-1 | -12% | -2.8% | -8% | Cn1nccc1C(=O)Nc1ccccc1C(=O)O
nt | 0% | -1.7% | 4% | COc1ccc(-c2csc(N(CC(C)C)C(=O)c3ccco3)n2)cc1
-2 | -50% | -0.2% | -7% | FC(F)Oc1ccccc1/C=N/n1cnc2ccccc21
nt | -3% | -1.1% | 19% | COc1cccc(OCC(O)CN2CCN(c3ccc(F)cc3)CC2)c1 (configuration not stated)
-2 | -2% | 0.1% | 8% | COc1ccccc1C(=O)N1CCC(N2CCN(c3ccccc3OC)CC2)CC1
nt | nt | ? | -5% | NC(=O)C1CCN(C(=O)c2ccc(F)c(S(=O)(=O)N3CCOCC3)c2)CC1
-7 | -1% | 0.0% | 0% | Clc1ccccc1-c1ccc(/C=N/Nc2nncc(-c3ccccc3)n2)o1
2 | 1% | 0.1% | -4% | CC(C)CC(=O)NS(=O)(=O)c1ccc(NC(=O)c2ccco2)cc1
-2 | -3% | 0.0% | 5% | Cc1cccc(OCCCc2c(C)n[nH]c2C)c1
nt | nt | -1.1% | -11% | Cc1ccc(NC(=O)CN2C(=O)NC3(CCCc4ccccc43)C2=O)c(Cl)c1 (configuration not stated)
nt | -1% | -4.6% | -11% | CCOC(=O)c1ccccc1NC(=O)COC(=O)CN1C(=O)C2CC=CCC2C1=O (configuration not stated)
nt | -2% | 3.2% | -17% | Cc1ccccc1OCC(=O)NS(=O)(=O)c1ccc(Cl)cc1
8 | 4% | ? | ? | CC(C)(C)c1ccc(OCC(=O)Nc2ccc3c4c(cccc24)C(=O)NC3=O)cc1
-2 | -24% | -0.9% | 4% | CCN(c1ccccc1)c1nc(=O)c2cccnc2s1
nt | nt | -0.9% | -10% | Cn1c(N)c(C(=O)CSc2nnc3n2CCCCC3)c(=O)n(C)c1=O
nt | nt | 3.6% | -2% | Cc1ccc(OCCC(=O)OCC(=O)Nc2c(C)nn(-c3ccccc3)c2C)cc1
-6 | 5% | 3.9% | 2% | COC(=O)c1c(NS(=O)(=O)Cc2ccccc2)sc2c1CCCC2

# Another view of part of the listing above:
structure | GLA inh pH 4.5 | miR-21 FLuc | Rango complex inh | Rango release inh
CCOC(=O)c1ccccc1NC(=O)COC(=O)CN1C(=O)C2CC=CCC2C1=O (configuration not stated) | nt | -1% | -4.6% | -11%
Cc1ccccc1OCC(=O)NS(=O)(=O)c1ccc(Cl)cc1 | nt | -2% | 3.2% | -17%
CC(C)(C)c1ccc(OCC(=O)Nc2ccc3c4c(cccc24)C(=O)NC3=O)cc1 | 8 | 4% | ? | ?
CCN(c1ccccc1)c1nc(=O)c2cccnc2s1 | -2 | -24% | -0.9% | 4%
Cn1c(N)c(C(=O)CSc2nnc3n2CCCCC3)c(=O)n(C)c1=O | nt | nt | -0.9% | -10%

# Carrying on:
GLA inh pH 4.5 | miR-21 FLuc | Rango complex inh | Rango release inh | smiles
nt | -2% | -1.9% | 4% | COc1ccc(C)cc1S(=O)(=O)NC(C)C(=O)Nc1ccc2c(c1)OCO2 (configuration not stated)
nt | nt | 0.3% | -12% | Cc1cc(C)c(NC(=O)CNC(=O)c2ccccc2OCc2c(C)noc2C)c(C)c1
nt | 7% | -1.4% | -17% | O=C(Nc1ccccc1N1CCN(C(=O)c2ccccc2)CC1)c1ccco1
3 | -16% | 1.0% | 2% | O=C(NC1CCCCC1)c1ccc(S(=O)(=O)N2CCCCC2)cc1
-12 | 11% | 1.6% | 1% | NS(=O)(=O)c1ccc(NC(=O)COC(=O)C2(c3ccccc3F)CCCC2)cc1
-1 | 3% | -0.2% | 15% | COC(=O)c1cc(NC(=O)c2ccc(F)cc2)cc(C(=O)OC)c1
4 | 3% | -0.2% | 14% | Cc1cc(C)cc(NC(=O)CN2CCN(c3ncccn3)CC2)c1
-9 | -18% | -1.1% | 6% | COC(=O)c1ccc(C)c(NC(=O)c2ccc(Cl)c([N+](=O)[O-])c2)c1
nt | nt | ? | 1% | O=C(O)c1ccccc1NS(=O)(=O)c1ccc(NN=Cc2ccccc2F)c([N+](=O)[O-])c1
-1 | -12% | ? | -29% | O=C(/C=C/c1ccccc1)N1CCN(CCN2C(=O)c3cccc4cccc(c34)C2=O)CC1
5 | -5% | ? | -11% | Cc1cccn2c(=O)c(C=Nc3ccc(Cl)cc3)c(NCCO)nc12
-18 | 0% | 0.5% | -6% | CCCNC(=S)N1CC2(C)CN(C(=O)C(=O)OC)CC(C)(C1)C2=O
7 | 0% | -2.3% | 1% | O=C(COC(=O)c1ccc(Cl)nc1)Nc1ccccc1OC(F)F
3 | -33% | -2.1% | -5% | O=C(NC1CCCCCC1)c1ccc2c(=O)n3c(nc2c1)CCCCC3
11 | 3% | 0.7% | 2% | COCc1cc(C)n(CC(=O)Nc2ccc(Cl)cc2Cl)c(=O)c1C#N
-13 | -23% | -6.8% | -11% | CC1(C)CC(=O)C(C=NCCN2CCN(C(=O)NC34CC5CC(CC(C5)C3)C4)CC2)=C(O)C1
nt | -1%&-6% | -0.1% | -1% | CC1CCCN(CCCNC(=O)c2cn(C)c3ccc(S(=O)(=O)N(C)C4CCCCC4)cc3c2=O)C1 (configuration not stated)
